Rango-impB inh: prevents formation of the Rango-importin beta complex; Q14974; Potency, µM (top dose mostly 92.2 µM), for the others: top-dose inhibition of complex formation; Rango CFP/YFP FRET sensor + importin beta, 45 min; 340,000 tested, 0.031% active; active = rising FRET ratio curve, often small or poorly fitted; inconclusive = mostly compound fluorescence or quenching in the first reads; inactive = flat curves in all reads;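 further: potency means the concentration at half of the fitted maximal effect; 0% = DMSO wells and 100% = buffer wells lacking importin beta; nearly all actives have a fitted effect of over 15% in size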
Target sequence (Q14974 whole entry, looked up): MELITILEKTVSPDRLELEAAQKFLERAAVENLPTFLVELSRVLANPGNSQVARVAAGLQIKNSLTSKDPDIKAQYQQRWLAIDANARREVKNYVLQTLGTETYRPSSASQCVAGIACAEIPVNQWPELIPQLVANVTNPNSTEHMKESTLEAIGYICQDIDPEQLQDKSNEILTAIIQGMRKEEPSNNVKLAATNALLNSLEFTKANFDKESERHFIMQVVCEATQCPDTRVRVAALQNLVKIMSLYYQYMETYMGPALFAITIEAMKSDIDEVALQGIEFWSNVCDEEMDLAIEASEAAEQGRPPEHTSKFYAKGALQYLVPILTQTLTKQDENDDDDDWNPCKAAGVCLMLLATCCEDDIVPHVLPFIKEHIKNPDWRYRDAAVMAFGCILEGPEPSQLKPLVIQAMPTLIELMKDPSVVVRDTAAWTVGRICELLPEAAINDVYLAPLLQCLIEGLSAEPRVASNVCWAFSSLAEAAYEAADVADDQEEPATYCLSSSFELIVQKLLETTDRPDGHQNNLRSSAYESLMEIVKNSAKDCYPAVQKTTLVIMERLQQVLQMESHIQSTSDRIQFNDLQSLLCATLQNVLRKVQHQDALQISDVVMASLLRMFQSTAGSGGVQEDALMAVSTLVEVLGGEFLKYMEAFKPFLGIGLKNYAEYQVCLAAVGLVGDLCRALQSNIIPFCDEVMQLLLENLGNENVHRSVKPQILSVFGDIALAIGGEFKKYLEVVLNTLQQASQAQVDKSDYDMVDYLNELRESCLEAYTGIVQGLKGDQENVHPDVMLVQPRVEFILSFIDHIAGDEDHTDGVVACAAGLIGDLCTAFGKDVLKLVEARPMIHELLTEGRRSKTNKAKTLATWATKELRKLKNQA
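Inhibition scored from the CFP 486 nm/YFP 530 nm FRET ratio 45 min after adding 0.125 microM importin beta to 50 nM Rango biosensor preincubated 5 min with compound (room temperature, PBS with DTT, Tween-20, BSA). No-importin wells as positive control.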
Rango release inh: prevents RanGTP from dissociating the Rango-importin beta complex; 340,000 tested, 0.071% active; Potency, µM (titrated, usually from 46.1 µM), inactives show at the highest dose activity change, negative = inhibition; AID 540253; Biochemical FRET Rango-importin beta, RanGTP-induced dissociation; active means falling FRET ratio curve, often poorly fitted, with flat reads before Ran was added; inconclusive means other falling curves, or compound fluorescence or quenching; inactive means flat or rising ratio curve;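 further: potency means the concentration at half of the fitted maximal effect; % of control where 0% means no effect; nearly all actives have a fitted effect of over 45% in size; -100% = wells without RanGTP and RCC1; the record marks most hits as doubtful in a second field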
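FRET read at 45 min, room temperature: inhibitors block the CFP/YFP signal rise when RanGTP (0.6 uM Ran, 2 mM GTP, 0.2 uM RCC1) frees Rango (0.1 uM) from importin beta (0.25 uM). Pre-read after 5 min compound exposure flags interference.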
miR-21 FLuc: miR-21 reporter, rising signal | 340,000 tested, under 10 active | Potency, µM (series often up to 38.3 µM), without a hit: top-dose reporter change, positive = more light | AID 2288 | HeLa miR-21 FLuc reporter, luciferase, 48 h; active = well fitted rising curve with a large enough effect; inconclusive = small, poorly fitted or top-dose-only effect; inactive = no such curve, though single readings can be large or run the other way;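 further: % of control where 0% means no effect; miR-21 action dims this reporter so a rising signal means less miR-21 action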
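HeLa cells endogenously expressing miR-21, stably carrying CMV-driven firefly luciferase with a downstream miR-21 binding site, 2000 cells/well. Titrations up to approximately 40 uM, 48 hours; luciferase luminescence read.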
GLA inh pH 4.5: alpha-galactosidase A (human) inhibition, pH 4.5; 230,000 tested, under 10 active; activity change, negative = inhibition, % at 105 µM; purified enzyme, 4-MU-alpha-Gal fluorescence, pH 4.5; AID 1467; inconclusive = small, poorly fitted or top-dose-only inhibition, or a rising curve; inactive = flat fitted curve, though single readings scatter; no compound was filed as active;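 further: 0% = full activity with enzyme and -100% = basal without enzyme; dose as in the result columns while the protocol names 77 µM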
Numbers without * were called inactive; ? = inconclusive; . = no result given; & = joins results of further samples. Only part of the results is shown (hit frequency here may not be typical).

Rango-impB inh	Rango release inh	miR-21 FLuc	GLA inh pH 4.5	SMILES
1.3%	4%	0%	.	Cc1cc(C)c(C)c(S(=O)(=O)N2CCN(C(=O)CCc3nc4ccccc4c(=O)[nH]3)CC2)c1C
1.7%	-5%	1%	.	O=c1oc2ccccc2c(NC2CCCCC2)c1NS(=O)(=O)c1ccc(F)c(Cl)c1
-0.9%	-24%	0%	4	CCN(CC)C(=O)CN1C(=O)C2CC=C(Cl)CC2C1=O (stereo not given)
-0.9%	-14%	3%	.	CCS(=O)(=O)N1CCC(C(=O)Oc2ccccc2)CC1
0.0%	11%	-6%	5	Cc1cccc(C)c1NC(=S)N(Cc1ccco1)C1CCN(C(C)C)CC1
-0.5%	4%	.	.	CC(=O)OC(C)C1C2=C(C(=O)CC1(C)O)C(=O)c1c(ccc(-c3ccc4c(c3O)C(=O)C3=C(C4=O)C(C(C)OC(C)=O)C(C)(O)CC3=O)c1O)C2=O (stereo not given)
?	?	-26%	7	CCOc1ccc2nc(NCCNS(=O)(=O)c3ccccc3)c(C#N)cc2c1
-5.4%	7%	-8%	-17	O=C(Nc1ccc(Cl)cc1)N1CCC(c2nc(-c3ccc(F)cc3)no2)CC1
-2.2%	2%	1%	.	CCOc1cccc(C(=O)Nc2ccccc2C(=O)N2CCN(C)CC2)c1
0.2%	39%	28%&20%	.	O=C(C1CCN(c2ncnc3c2nc2n3CCCCC2)CC1)N1CCN(c2ccccc2F)CC1
-0.7%	0%	1%	5	CCc1cc2c(NCc3ccco3)ncnc2s1
-2.3%	-17%	-5%	.	COc1ccc(-c2cc(C(=O)N3CCCC3)c3ccccc3n2)cc1OC
6.2%	2%	2%	-11	Cc1csc(NC(=O)/C=C/c2ccc3c(c2)OCO3)n1
2.6%	22%	.	.	COc1ccc(CC2(c3ccccc3)NC(=O)NC2=O)cc1 (stereo not given)
-0.3%	6%	0%	4	O=S(=O)(c1ccc(F)c(F)c1F)N1CCN(C(=S)Nc2ccccc2)CC1
1.4%	-16%	-1%	.	COc1ccccc1N(C)S(=O)(=O)c1ccc(Cl)c(C(=O)NNC(=O)c2ccccc2O)c1
3.3%	-6%	0%	.	CCc1cc(=O)oc2cc(OCC(=O)NC3CC(C)(C)NC(C)(C)C3)ccc12
-2.7%	-3%	-3%	-11	Nc1c(-c2ccc(F)cc2)cnc2ncnn12
?	?	-1%	-6	Cc1ccc2c3c([nH]c2c1)C(=O)CC(C)(C)S3
.	.	0%	3	Cc1onc(-c2c(Cl)cccc2Cl)c1C(=O)n1nnc2ccccc21
0.7%	-10%	-8%	2	CC(C)C(=O)N1CCN(c2nc(-c3ccccc3)c3c(c2C#N)CC(C)(C)OC3)CC1
3.2%	-2%	-26%	.	C/C(=N\NC(=O)c1ccc(O)cc1O)c1cccnc1
-0.8%	14%	.	.	NC(=O)C1CCN(C(=O)C2CCN(C(=O)Nc3ccccc3)CC2)CC1
-0.2%	-14%	0%	.	COc1ccc(CN2CCNC(=O)C2CC(=O)NCCN2CCCCC2=O)c(F)c1 (stereo not given)
7.5%	19%	.	.	CCN1CCN(c2ccc(S(=O)(=O)N3CCCCC3)cc2NC(=O)c2cccc(C)c2[N+](=O)[O-])CC1

An excerpt of these results, with two lines to a compound:
Fields – Rango-impB inh | Rango release inh | miR-21 FLuc | GLA inh pH 4.5
- CCOc1cccc(C(=O)Nc2ccccc2C(=O)N2CCN(C)CC2)c1
→ -2.2% | 2% | 1% | .
- O=C(C1CCN(c2ncnc3c2nc2n3CCCCC2)CC1)N1CCN(c2ccccc2F)CC1
→ 0.2% | 39% | 28%&20% | .
- CCc1cc2c(NCc3ccco3)ncnc2s1
→ -0.7% | 0% | 1% | 5
- COc1ccc(-c2cc(C(=O)N3CCCC3)c3ccccc3n2)cc1OC
→ -2.3% | -17% | -5% | .

Profiles, looked up by structure. Screens in order: Rango-impB inh	Rango release inh	miR-21 FLuc	GLA inh pH 4.5
Record of CCN1CCN(c2ccc(S(=O)(=O)N3CCCCC3)cc2NC(=O)c2cccc(C)c2[N+](=O)[O-])CC1 = 7.5%	19%	.	.
Record of O=C(Nc1ccc(Cl)cc1)N1CCC(c2nc(-c3ccc(F)cc3)no2)CC1 = -5.4%	7%	-8%	-17
Record of COc1ccc(CC2(c3ccccc3)NC(=O)NC2=O)cc1 (stereo not given) = 2.6%	22%	.	.
Record of Nc1c(-c2ccc(F)cc2)cnc2ncnn12 = -2.7%	-3%	-3%	-11

Back to the main list; the three compounds before the break are reprinted first.
Rango-impB inh	Rango release inh	miR-21 FLuc	GLA inh pH 4.5	SMILES
-0.8%	14%	.	.	NC(=O)C1CCN(C(=O)C2CCN(C(=O)Nc3ccccc3)CC2)CC1
-0.2%	-14%	0%	.	COc1ccc(CN2CCNC(=O)C2CC(=O)NCCN2CCCCC2=O)c(F)c1 (stereo not given)
7.5%	19%	.	.	CCN1CCN(c2ccc(S(=O)(=O)N3CCCCC3)cc2NC(=O)c2cccc(C)c2[N+](=O)[O-])CC1
.	.	-6%	0	CCN1C(=O)OC2(CCCCC2)C1(C)O (stereo not given)
?	?	.	.	Oc1ccc2ccccc2c1/C=C/c1ccc2c(Br)cc(Br)c(O)c2n1
-1.0%	1%	0%	-3	CCOC(=O)c1cc(NC(=O)c2cc(C)on2)cc(C(=O)OCC)c1
1.2%	-8%	3%	2	CCCCNC(=O)CCCCC(=O)N/N=C/c1ccccc1Cl
-5.5%	25%	1%	.	COc1ccccc1-c1nc(SCC(=O)NCc2ccco2)c2c(=O)n(C)c(=O)n(C)c2n1
-0.4%	9%	.	.	CC(C)(c1ccccc1)c1ccc(OCc2ccc(C(=O)O)o2)cc1
-1.8%	1%	3%	-1	COc1ccc(C(=O)CSc2nnc(-c3ccccc3)o2)cc1
-6.8%	-2%	1%	2	COc1cccc(NS(=O)(=O)CC23CCC(CC2=O)C3(C)C)c1 (stereo not given)
4.4%	-12%	1%	0	CC(C)(C)n1nc2c(c1NC(=O)c1ccco1)CS(=O)C2 (stereo not given)
-1.0%	-4%	-26%	.	O=C(Nc1cccnc1)c1ccc(Cl)c(Cl)c1
-3.7%	-6%	0%	7	CCSc1nnc([C@H](Cc2ccccc2)NC(=O)OC(C)(C)C)o1
-0.4%	-9%	3%	-18	CC(Sc1nnc2c(n1)C1CCC2(C)C1(C)C)C(=O)Nc1ccccc1 (stereo not given)
6.1%	-1%	1%	.	Nc1nonc1-n1nnc(C(=O)N/N=C/c2ccc(Cl)cc2Cl)c1CN1CCCCC1
-2.7%	4%	-11%	.	O=C(CNC(=O)c1cccc(Br)c1)N/N=C/c1ccc2c(c1)OCO2
1.7%	7%	0%	.	CC(C)(C)C(=O)Nc1cc2c3c(c1)CCN3C(=O)CC2
-1.1%	-19%	.	.	Cc1ccc(S(=O)(=O)Nc2c(C)n(C)n(-c3ccccc3)c2=O)cc1C(=O)NCc1ccco1
?	?	-46%	-3	CCN(CC)c1ccc(C=N/C(C#N)=C(\N)C#N)cc1
-0.6%	-15%	?	-2	CCSc1nnc(-c2cccc(S(=O)(=O)N(CC)CC)c2)n1Cc1ccccc1
2.6%	-5%	5%	.	NC(=O)c1nsc(C(=O)N(Cc2ccco2)C(C(=O)NCC2CCCO2)c2ccc(F)cc2)c1N (stereo not given)
2.1%	0%	-1%	-3	O=C(NCc1ccccc1)c1nc[nH]c1C(=O)NCc1ccccc1
-2.3%	11%	2%	.	CCC(CC)C(=O)Nc1nnc(S(=O)(=O)Nc2ccccc2C)s1
-2.2%	2%	.	.	CCOc1cc2c(cc1OCC)C(c1ccc(F)cc1)NCC2 (stereo not given)
0.1%	7%	6%	-9	COc1ccc(-c2noc(CN(C)S(=O)(=O)c3ccc(Cl)cc3)n2)cc1OC
1.7%	7%	4%	0	O=C1CCC(/C=C/c2ccccc2)=NN1Cc1ccc(F)cc1
-0.2%	4%	-25%	-4	Nc1ccccc1C(=O)Nc1cccc(C(=O)O)c1

The list goes on.
Rango-impB inh	Rango release inh	miR-21 FLuc	GLA inh pH 4.5	SMILES
-0.7%	17%	-12%	0	CCCC(=O)c1cc(-c2nc3ccccc3n2C)n(C)c1
-0.4%	2%	0%	.	CC1CCN(CCCN2C(=O)C3C(C(=O)Nc4ccc(Cl)cc4)C4C=CC3(O4)C2C(=O)NC2CCCCC2)CC1 (stereo not given)
0.4%	-10%	-30%	0	Cc1cc(C(=O)N/N=C/c2ccccn2)n[nH]1
3.7%	?	-32%&-5%	.	COc1ccccc1C(=O)Nc1nnc(S(=O)(=O)N2CCCCC2)s1
?	?	1%	-12	CCOC(=O)C1=C(C)Nc2sc(C(=O)c3ccc(F)cc3)c(N)c2C1c1ccc(C(=O)OC)cc1 (stereo not given)
.	.	-5%	5	CCc1nccn1C(=O)c1cnn2c(C(F)F)cc(-c3ccccc3)nc12
-5.0%	-19%	6%	-15	Cc1ccc(N(CC(O)Cn2c3ccccc3c3ccccc32)S(C)(=O)=O)c(C)c1 (stereo not given)
-0.5%	-7%	-7%	-8	COc1ccccc1N1CCN(C(c2ccc(C)cc2)c2nnnn2C(C)C)CC1 (stereo not given)
0.1%	20%	0%	.	CC1CCC(NS(=O)(=O)c2ccc3c(c2)CC(=O)N3)CC1 (stereo not given)
1.9%	13%	0%	.	O=C(CSc1n[nH]c(=O)n1-c1cccnc1)Nc1ccccc1
5.7%	-1%	-4%	1	Cc1c(-c2nnnn2-c2ccc(F)cc2)cnc2cc3c(cc12)OCO3
0.4%	7%	0%	1	O=[N+]([O-])c1ccc(N2CCN(S(=O)(=O)c3ccccc3)CC2)cc1NCC1CCCO1 (stereo not given)
2.3%	-14%	0%	0	Cc1cc(C)n(-c2nc3ccccc3c(=O)n2OC2CCCCC2)n1
-1.6%	4%	0%	6	Nc1ncnc(N2CCOCC2)c1N
0.5%	0%	-3%	-7	CC(C)=NOC(=O)c1ccc(-c2ccccc2)cc1
3.6%	10%	1%&-8%	.	COc1ccc(NC(=O)CN(C)S(=O)(=O)c2cnc[nH]2)cc1
0.3%	-14%	-1%	.	CC(C)c1ccc(C(=O)OCC(=O)NC2CCCC2)cc1
5.7%	-9%	-1%	-5	Cc1nnsc1C(=O)N1CCC(C(=O)c2ccccc2)CC1
2.1%	7%	1%&0%	.	CC(C)(C)OC(=O)N1CCC(c2c(C(=O)N3CCN(C(=O)c4ccco4)CC3)cnn2-c2ccc(F)cc2F)CC1
0.2%	7%	-42%	-19	CC(Oc1ccccc1)C(=O)NC1=NCCS1 (stereo not given)
0.9%	28%	-13%&-5%	-8&-18	NS(=O)(=O)c1ccc(NC(=S)NC(=O)c2ccco2)cc1

3 compounds already listed, ordered by formula weight, smallest number first.
Rango-impB inh	Rango release inh	miR-21 FLuc	GLA inh pH 4.5	SMILES
-0.7%	17%	-12%	0	CCCC(=O)c1cc(-c2nc3ccccc3n2C)n(C)c1
0.3%	-14%	-1%	.	CC(C)c1ccc(C(=O)OCC(=O)NC2CCCC2)cc1
3.7%	?	-32%&-5%	.	COc1ccccc1C(=O)Nc1nnc(S(=O)(=O)N2CCCCC2)s1

Compound activity: PubChem BioAssay, National Center for Advancing Translational Sciences (NCATS)
